Marburg entry inh: blocks Marburg virus binding to or entry into cells; actives 1.8% (n = 300,000); Marburg virus pseudotyped entry inhibition, cell reporter; control for the full effect not named in the record; about a third of the inactives were read at about 46 µM; Potency, µM (titrated, usually from 37.8 µM), for the others: at the highest dose activity change, negative = inhibition, most hits filed as inhibitors; active = well fitted inhibition curve with a large enough effect; inconclusive = small, poorly fitted or top-dose-only effect, or effect the other way; inactive = flat fitted curve, though single readings scatter; tested in HEK293 cells; about a fifth of its hits are not listed in these tables; note: % is set by controls: 0 for no effect and ±100 for the full control effect; luciferase read-out
2A StopGo: lowers the luciferase signal of an FMDV 2A StopGo reporter; human cells with a luciferase reporter of 2A StopGo recoding; control for the full effect not named in the record; Potency, µM (titrated, usually from 57.9 µM), for the others: at the top dose signal change, negative = less light; actives 1.2% (n = 410,000); active = well fitted falling curve with a large enough effect; inconclusive = small, poorly fitted or top-dose-only effect; inactive = no such curve, though single readings can be large or run the other way; tested in HEK293T cells; note: % is set by controls: 0 for no effect and ±100 for the full control effect; nearly all actives have a fitted effect of over 45% in size; luciferase light after 4 h
Cruzain noTriton: inhibitors of Trypanosoma cruzi cruzain without detergent; actives 2.3% (n = 200,000); Potency, µM, for the others: max response, negative = inhibition, usual class: inhibitors; purified cruzain, Z-FR-AMC fluorescence, no detergent; AID 1476; P25779; active = well fitted curve in the direction sought with a large enough effect; inconclusive = small, poorly fitted or top-dose-only effect, or another doubt; inactive = no such curve, though single readings can be large; an effect the other way counts as inactive or inconclusive;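 note: plate controls were enzyme without inhibitor for no effect and buffer without enzyme for full effect; nearly all actives have a fitted effect of over 40% in size; top concentration of the series not given in the record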
Target sequence (P25779 123-467 limits assumed): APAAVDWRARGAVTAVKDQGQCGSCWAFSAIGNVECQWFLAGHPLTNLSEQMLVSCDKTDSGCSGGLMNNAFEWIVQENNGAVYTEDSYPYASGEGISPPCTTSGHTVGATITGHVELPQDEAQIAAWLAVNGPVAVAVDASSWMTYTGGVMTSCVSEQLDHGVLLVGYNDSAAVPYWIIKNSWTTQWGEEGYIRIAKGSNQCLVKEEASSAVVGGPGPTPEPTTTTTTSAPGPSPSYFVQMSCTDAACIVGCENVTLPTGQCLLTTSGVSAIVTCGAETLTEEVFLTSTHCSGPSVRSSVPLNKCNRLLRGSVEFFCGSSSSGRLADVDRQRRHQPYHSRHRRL
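Purified cruzain at 1.5 nM, pre-incubated 15 min with compound at room temperature in 100 mM sodium acetate pH 5.5, 5 mM DTT, 0.00005% Triton X-100. Reaction started with 2 uM Z-FR-AMC; AMC fluorescence increase over 60 s gives rate.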
Cruzain inh Det: inhibitors of Trypanosoma cruzi cruzain with detergent. P25779. purified cruzain, Z-FR-AMC fluorescence, 0.01% Triton. Potency, µM, for the others: max response, negative = inhibition, hits mostly inhibitors. actives 0.43% (n = 200,000); active = well fitted curve in the direction sought with a large enough effect; inconclusive = small, poorly fitted or top-dose-only effect, or another doubt; inactive = no such curve, though single readings can be large; an effect the other way counts as inactive or inconclusive;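 note: plate controls were neutral wells for no effect and buffer without enzyme for full effect; nearly all actives have a fitted effect of over 40% in size; top concentration of the series not given in the record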
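15 min RT preincubation of 1.5 nM cruzain with compound, then 2 uM Z-FR-AMC added; kinetic AMC fluorescence, 60 s delta. Triton X-100 0.01%, pH 5.5.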
SARS PLP yeast: blocks SARS-CoV papain-like protease in a yeast assay. S. cerevisiae expressing SARS-CoV PLpro, growth rescue; control for the full effect not named in the record. actives 0.19% (n = 330,000). Potency, µM (titrated, usually from 32.9 µM), without a hit: at the top dose activity, positive = growth rescue; note: 0% is about no effect; nearly all actives have a fitted effect of over 55% in size; growth read by luminescence after 48 h
Lassa entry inh: Lassa virus entry inhibition; actives 1.2% (n = 300,000); Potency, µM (titrated, usually from 37.9 µM), for inactives: at the top dose activity change, negative = inhibition, usual class: inhibitors; Lassa virus pseudotype entry inhibition, cell reporter; control for the full effect not named in the record; active means well fitted inhibition curve with a large enough effect; inconclusive means small, poorly fitted or top-dose-only effect, or effect the other way; inactive means flat fitted curve, though single readings scatter; tested in HEK293 cells; note: % is set by controls: 0 for no effect and ±100 for the full control effect; nearly all actives have a fitted effect of over 50% in size; luciferase read-out
NS1 inh: inhibitors of influenza NS1 protein function; S. cerevisiae slowed by influenza A NS1, growth recovery by OD600; Potency, µM (doses to about 46.1 µM), for the others: at the top dose activity, positive = more growth; actives 0.4% (n = 270,000); note: actives are rising curves; nearly all actives have a fitted effect of over 50% in size
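A cell-based growth assay was used: compounds that relieve NS1-induced slow growth of budding yeast raise OD600. Assay medium was yeast nitrogen base with ammonium sulphate and -URA supplement, pH 6.0, with 2% galactose.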
RE007 growth inh: less growth of the S. pombe RE007 Vpr strain. actives 0.21% (n = 360,000). Potency, µM (series often up to 92.2 µM), inactives show top-dose activity change, negative = less growth. S. pombe RE007 Vpr strain, BacTiter-Glo ATP luminescence, 24 h; control for the full effect not named in the record. AID 651644; active = well fitted falling curve with a large enough effect; inconclusive = small, poorly fitted or top-dose-only effect; inactive = no such curve, though single readings can be large or run the other way;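 note: % is set by controls: 0 for no effect and ±100 for the full control effect; nearly all actives have a fitted effect of over 50% in size; the assay follows cell death caused by Vpr and the record does not say whether a fall means rescue or toxicity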
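Fission yeast strain RE007, carrying one chromosomally integrated HIV-1 vpr copy, was seeded at OD 0.01 in PMG+AL medium with 23 nL pinned compound. After 24 h at 30 °C and 99% humidity, viability was read by BacTiter-Glo luminescence.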
* = called active by the depositor; ? = inconclusive; . = no result given; & = joins results of further samples; [ ] = another dose, or the depositor's remark. Unless noted, calls come from the whole dose curve; as a rule, active means well fitted rising curve with a large enough effect; inconclusive means small, poorly fitted or top-dose-only effect; inactive means no such curve, though single readings can be large or run the other way. Potency is the fitted concentration of half-maximal effect. Rows are unselected; 4.7% or so of the library scored in one or more.

nr	Molecule	Marburg entry inh	2A StopGo	Cruzain noTriton	Cruzain inh Det
1	C/C(=N\NC(=O)c1cccc(S(=O)(=O)N2CCOCC2)c1)c1ccco1	1%[46.1 µM]	21%	.	.
2	Cc1cc(C)c(S(=O)(=O)Nc2ccc(-c3ccc(N4CCC(C)CC4)nn3)cc2)cc1C	.	56%[activator]	-27%	-4.3%
3	Cc1ccccc1C(=O)Nc1ccc(Br)cn1	?	.	-10%	3.5%
4	COc1ccc(CN(C)C(=O)c2cnc(OC)cc2C(F)(F)F)c(OC)c1	.	-3%	.	.
5	Cc1ccc2nc(SCC(=O)c3c(N)n(C4CC4)c(=O)[nH]c3=O)[nH]c2c1	-10%	-11%	.	.
6	Cc1ccc(-n2c(=O)c3sccc3n(Cc3cc(=O)n4ccccc4n3)c2=O)cc1F	4%	.	-5%	-5.9%
7	COc1ccc(NC(=O)CCCc2nnc3n(C)c(=O)c4sccc4n23)cc1	.	-5%	.	.
8	COc1ccc(-c2c(C(F)(F)F)[nH]n3c(=O)cc(-c4ccccc4)nc23)cc1	15%[14.2 µM]	?	.	.
9	CC(C)Oc1ccc(C(=O)N2CCN(CCc3ccccn3)CC2)cc1	6%[46.1 µM]	-2%	1%	-0.5%
10	Cn1c(C(=O)NC2CCCCC2)cc2sccc21	?	46%[activator]	?	-1.6%
11	CCOc1ccc(NS(=O)(=O)c2cnc(Cl)c(Cl)c2)cc1	?	-20%	-7%	-6.9%
12	Cc1ccccc1CN1CCC(n2nccc2NC(=O)CCCc2ccccc2)CC1	.	-2%	.	.

nr	SARS PLP yeast	Lassa entry inh	NS1 inh	RE007 growth inh
1	1%	-8%	7%	-13%
2	.	?	.	.
3	1%	-21%	-11%	0%
4	0%	.	5%	18%
5	-6%	-8%	.	20%
6	-4%	.	9%	.
7	12%	.	0%	-9%
8	0%	-7%	8%	10%
9	.	2%[46.1 µM]	.	.
10	5%	11%	-12%	6%
11	-40%	?	-52%	0%
12	11%	.	0%	-5%

Just 2A StopGo and RE007 growth inh, for some of the entries so far:
| No. | Structure | 2A StopGo | RE007 growth inh |
| --- | --- | --- | --- |
| 7 | COc1ccc(NC(=O)CCCc2nnc3n(C)c(=O)c4sccc4n23)cc1 | -5% | -9% |
| 8 | COc1ccc(-c2c(C(F)(F)F)[nH]n3c(=O)cc(-c4ccccc4)nc23)cc1 | ? | 10% |
| 9 | CC(C)Oc1ccc(C(=O)N2CCN(CCc3ccccn3)CC2)cc1 | -2% | . |
| 10 | Cn1c(C(=O)NC2CCCCC2)cc2sccc21 | 46%[activator] | 6% |
| 11 | CCOc1ccc(NS(=O)(=O)c2cnc(Cl)c(Cl)c2)cc1 | -20% | 0% |

(cont.)
nr	Molecule	Marburg entry inh	2A StopGo	Cruzain noTriton	Cruzain inh Det
13	Cc1cccc(NC(=O)c2ccc3ccccc3n2)n1	?	8%	-3%	-5.1%
14	CC(C)(C)OC(=O)N1CCC(c2c(C(=O)N3CCN(C(=O)c4ccco4)CC3)cnn2-c2ccccc2Cl)CC1	.	3%	?	-3.9%
15	CCN(CC)S(=O)(=O)c1ccc2c(c1)N(CC(=O)N1CCN(c3cccc(Cl)c3)CC1)C(=O)CO2	.	-30%	?	-4.3%
16	COc1ccc(Nc2nc(NCc3ccco3)nc(N/N=C/c3ccccc3Cl)n2)cc1	9%	-4%	-83%	-2.3%
17	CN(C)S(=O)(=O)Oc1ccc(Cl)cc1C(=O)Nc1cccc(C(F)(F)F)c1	-19%	-22%	1%	-4.6%
18	C=CCc1ccccc1OCC(=O)O	.	-10%	.	.
19	Cc1ccc(S(=O)(=O)N2CCC(=O)N(CCOCc3ccc(Cl)cc3)CC2)cc1	-6%	0%	?	-4.0%
20	CCCN(CCC)Cc1c(C(=O)N/N=C/c2ccoc2)nnn1-c1nonc1N	-5%[46.1 µM]	50%[activator]	.	.
21	O=C(N/N=C/c1cccc([N+](=O)[O-])c1O)c1cccs1	?	25%	0%	-2.3%
22	S=C(Nc1cccnc1)Nc1cccc2cnccc12	-13%[46.1 µM]	3%	.	.
23	Cc1ccc(NC2=C(Cl)C(=O)N(C3CCCCC3)C2=O)cc1	?	16%	-5%	1.6%
24	O=C(CN(C(=O)Cn1nnc(-c2cccs2)n1)c1ccc2c(c1)OCCO2)NC1CCCCC1	3%&-9%	26%	-7%	-1.0%

nr	SARS PLP yeast	Lassa entry inh	NS1 inh	RE007 growth inh
13	-14%	?	-11%	?
14	.	17%[46.1 µM]	.	.
15	.	-5%[46.1 µM]	.	.
16	-16%	6%	19%	-12%
17	-1%	-7%	-9%	-1%
18	0%	.	5%	5%
19	-3%	?	-31%	-18%
20	9%	-17%	0%	1%
21	?	-18%	-24%	-9%
22	-5%	7%	.	-18%
23	1%	12%	7%	13%
24	2%	13%	-23%	-4%

Pulled one by one from above, two records:
nr	Molecule	Marburg entry inh	2A StopGo	Cruzain noTriton	Cruzain inh Det
23	Cc1ccc(NC2=C(Cl)C(=O)N(C3CCCCC3)C2=O)cc1	?	16%	-5%	1.6%
15	CCN(CC)S(=O)(=O)c1ccc2c(c1)N(CC(=O)N1CCN(c3cccc(Cl)c3)CC1)C(=O)CO2	.	-30%	?	-4.3%

nr	SARS PLP yeast	Lassa entry inh	NS1 inh	RE007 growth inh
23	1%	12%	7%	13%
15	.	-5%[46.1 µM]	.	.

(listing goes on)
nr	Molecule	Marburg entry inh	2A StopGo	Cruzain noTriton	Cruzain inh Det
25	Cc1ccccc1NC(=O)C1C2/C=C\CCCCC21 (configuration not stated)	14%	21%	?	0.2%
26	Cc1c(C(=O)N2CCC(C)CC2)c(S(=O)(=O)Nc2cccc(C(F)(F)F)c2)c(C)n1C	.	60%[activator]	?	-4.8%
27	Nc1cc(N)nc(SCC(=O)c2ccccc2)n1	12%	56%[activator]	6%	5.2%
28	Oc1cccc2ccc(/C=C/c3ccc(Br)s3)nc12	9%[46.1 µM]	-11%	.	.
29	Cc1csc(SCC(=O)c2cc(C)n(Cc3cccs3)c2C)n1	0.5µM*	11µM*	7%	-2.9%
30	COc1ccc(CNC(=O)c2ccc(CS(=O)Cc3ccc(Cl)cc3)o2)cc1 (configuration not stated)	.	-20%	.	.
31	C=CCN=C1SC(CC)C(=O)N1S(=O)(=O)c1ccc(C)cc1 (configuration not stated)	2%[46.1 µM]	-18%	-4%	2.2%
32	COCCCNc1nc2ccccc2nc1NS(=O)(=O)c1ccc(C)cc1C	.	14%	.	.
33	CCOc1ccc(-c2nc(-c3ccc(OC)c(OC)c3)no2)cc1OCC	9%	.	-3%	0.8%
34	CCN1CCN(C(c2cccs2)C(C)NC(=O)NC2CCCCC2)CC1 (configuration not stated)	.	-19%	-7%	-4.7%
35	CCN(CC(=O)Nc1c(F)cccc1F)C(=O)Cc1ccc(OC)c(S(=O)(=O)N2CCOCC2)c1	-7%	-4%	.	.
36	CCOC(=O)CSc1nc2c(c(=O)[nH]c(=O)n2C)n1C/C=C(/C)Cl	28%	11%	24%	2.0%

nr	SARS PLP yeast	Lassa entry inh	NS1 inh	RE007 growth inh
25	-5%	-7%	-2%	29%
26	.	2%[46.1 µM]	.	.
27	1%	?	10%	-5%
28	-2%	7%[46.1 µM]	5%	153%
29	-10%	0.79µM*	-37%	5%
30	2%	.	-1%	-3%
31	1%	1%	-4%	0%
32	-1%	.	-4%	13%
33	13%	.	1%	.
34	6%	.	-2%	3%
35	2%	1%	.	0%
36	1%	-12%	-10%	3%

nr	Molecule	Marburg entry inh	2A StopGo	Cruzain noTriton	Cruzain inh Det
37	CCN(Cc1ccccc1)C(=O)CN1C(=O)CSc2ccc(S(=O)(=O)N(CC)CC)cc21	?	-20%	10%	0.3%
38	CC1Cc2cc(/C(O)=C3/C(=O)C(=O)N(CCCn4ccnc4)C3c3cccc([N+](=O)[O-])c3)ccc2O1 (configuration not stated)	.	12%	.	.
39	CCOC(=O)N1CCN(c2ncnc3scc(-c4ccccc4)c23)CC1	?	-22%	.	.
40	Cc1ccc(N=C2NC(=O)C(CO)(CO)S2)cc1	8%	0%	.	.
41	CC(C)CCN(CCC(C)C)C(=O)Cc1c(O)c2ccccc2[nH]c1=O	.	-18%	.	.
42	COc1cc(C(=O)Nc2cccc(C)c2C)c(Br)c(OC)c1OC	4%	-26%	.	.
43	Cc1nnc(NC(=O)C2CCN(S(=O)(=O)c3ccc(F)c(Cl)c3)CC2)o1	17%	-12%	.	.
44	CCOC(=O)C1=C(CN2CCN(C(=O)c3ccco3)CC2)NC(=O)NC1c1ccc(Cl)cc1 (configuration not stated)	-18%[46.1 µM]	-12%	.	.
45	COc1ccc(OC)c(NC(=O)CSC2=C(C#N)C(c3ccco3)C3=C(CCCC3=O)N2)c1 (configuration not stated)	-3%	0%	21%	-5.4%
46	CCCCn1nnc(NC(=O)c2ccco2)n1	?	24%	-8%	-0.8%
47	CCNc1nc(NCC)nc(OCCOC(=O)c2ccccc2)n1	11%	-19%	-2%	-1.5%
48	Cn1c(=O)cc(C(=O)N/N=C/c2ccc(Cl)cc2)[nH]c1=O	?	10%	.	.
49	Nc1cc(C(=O)c2ccccc2)ccc1[N+](=O)[O-]	1%[46.1 µM]	7%	.	.
50	COc1ccc(CN2CC(C(=O)NCCCOC(C)C)CC2=O)cc1 (configuration not stated)	3%	-6%	5%	2.1%

nr	SARS PLP yeast	Lassa entry inh	NS1 inh	RE007 growth inh
37	.	.	.	.
38	2%	.	-21%	1%
39	-1%	-20%[46.1 µM]	-34%	7%
40	-1%	25%	-7%	-12%
41	0%	.	1%	-1%
42	0%	16%	.	-8%
43	-15%	22%	.	12%
44	11%	?	-17%	8%
45	4%	-6%	-2%	12%
46	5%	?	-2%	-4%
47	0%	2%	-13%	5%
48	-2%	18%[46.1 µM]	3%	-1%
49	-5%	-14%[46.1 µM]	.	5%
50	-1%	3%	?	7%
